# Rango dissoc inh: inhibition of RanGTP-driven Rango-importin beta dissociation; O95149+P62826; Biochemical FRET Rango-importin beta, RanGTP-induced dissociation; Potency, µM (doses to about 46.1 µM), for inactives: at the highest dose activity change, negative = inhibition; 340,000 compounds, 0.071% hits; active means falling FRET ratio curve, often poorly fitted, with flat reads before Ran was added; inconclusive means other falling curves, or compound fluorescence or quenching; inactive means flat or rising ratio curve;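 further: potency means the concentration at half of the fitted maximal effect; % of control where 0% means no effect; nearly all actives have a fitted effect of over 45% in size; -100% = wells without RanGTP and RCC1; the record marks most hits as doubtful in a second field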
#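 Recombinant Rango FRET biosensor (EYFP–snurportin 1 IBB–cerulean CFP10) at 0.1 uM premixed with 0.25 uM importin beta in PBS, 1 mM DTT, 0.02% Tween-20, 0.1% BSA. Compound added 5 min; RanGTP-RCC1 (0.6 uM Ran, 2 mM GTP, 0.2 uM RCC1) then triggers release, read at 45 min.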
# Rango complex inh: inhibitors of Rango-importin beta complex formation; Q14974; Rango CFP/YFP FRET sensor + importin beta, 45 min; Potency, µM (doses to about 92.2 µM), for inactives: at the highest dose inhibition of complex formation; 340,000 compounds, 0.031% hits; AID 540263; active = rising FRET ratio curve, often small or poorly fitted; inconclusive = mostly compound fluorescence or quenching in the first reads; inactive = flat curves in all reads;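 further: potency means the concentration at half of the fitted maximal effect; 0% = DMSO wells and 100% = buffer wells lacking importin beta; nearly all actives have a fitted effect of over 15% in size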
#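 FRET biosensor (snurportin 1 IBB flanked by EYFP and cerulean), 50 nM, with compound 5 min, then 0.125 microM importin beta in PBS, 1 mM DTT, 0.02% Tween-20, 0.1% BSA. CFP/YFP ratio read after 45 min at room temperature; pre-read flags interference.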
# GLA inh pH 4.5: inhibitors of human alpha-galactosidase A at pH 4.5; 230,000 tested, under 10 active; activity change, negative = inhibition, % at 105 µM; P06280; purified enzyme, 4-MU-alpha-Gal fluorescence, pH 4.5; inconclusive = small, poorly fitted or top-dose-only inhibition, or a rising curve; inactive = flat fitted curve, though single readings scatter; no compound was filed as active;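 further: 0% = full activity with enzyme and -100% = basal without enzyme; dose as in the result columns while the protocol names 77 µM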
# Target sequence (P06280 whole entry, looked up): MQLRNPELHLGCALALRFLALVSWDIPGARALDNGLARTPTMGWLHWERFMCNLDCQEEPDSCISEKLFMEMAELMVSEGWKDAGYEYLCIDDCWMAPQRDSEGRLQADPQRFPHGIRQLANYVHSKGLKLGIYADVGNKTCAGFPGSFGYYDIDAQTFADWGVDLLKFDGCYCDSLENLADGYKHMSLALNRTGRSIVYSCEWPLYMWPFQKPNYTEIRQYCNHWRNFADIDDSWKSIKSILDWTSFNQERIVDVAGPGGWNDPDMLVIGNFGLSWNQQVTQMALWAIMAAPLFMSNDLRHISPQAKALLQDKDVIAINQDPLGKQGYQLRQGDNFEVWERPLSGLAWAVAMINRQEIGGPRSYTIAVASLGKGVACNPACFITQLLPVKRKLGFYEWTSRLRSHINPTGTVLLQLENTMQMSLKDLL
# miR-21 FLuc: raises the signal of a miR-21 reporter; Potency, µM (highest dose often 38.3 µM), for the others: at the top dose reporter change, positive = more light; 340,000 tested, under 10 active; HeLa miR-21 FLuc reporter, luciferase, 48 h; active = well fitted rising curve with a large enough effect; inconclusive = small, poorly fitted or top-dose-only effect; inactive = no such curve, though single readings can be large or run the other way;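 further: % of control where 0% means no effect; miR-21 action dims this reporter so a rising signal means less miR-21 action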
#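 HeLa cells endogenously expressing miR-21, stably carrying CMV-driven firefly luciferase with a downstream miR-21 binding site, 2000 cells/well. Titrations up to approximately 40 uM, 48 hours; luciferase luminescence read.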
# Active calls of the source: *; ? = inconclusive; . = not tested or not shown; & = joins results of further samples. Not all compounds are listed; rates above refer to the full screens.
(1) COc1ccc(S(=O)(=O)N2CCCCC2)cc1NC(=O)CCNC(=O)c1ccccc1Cl
(2) CC(=O)NC/C(C)=N\Nc1ccc([N+](=O)[O-])cc1
(3) CCC(C(=O)NCCc1ccc(S(N)(=O)=O)cc1)c1ccccc1 (stereo not given)
(4) O=C(COC(=O)c1ccccc1)Nc1cc(S(=O)(=O)N2CCCCCC2)ccc1Cl
(5) COc1ccc(N2CCN(C(=O)Cc3ccc(OC)c(OC)c3)CC2)cc1
(6) O=C(Cc1coc(-c2ccc(F)cc2)n1)NC1CCCCC1
(7) CCCc1cc(=O)oc2c(C)c(O)c(CN3CCCCC3)cc12
(8) COc1cc(CNCCCN2CCOCC2)ccc1OCC(=O)NC(C)(C)C
assay / compound | 1 | 2 | 3 | 4 | 5 | 6 | 7 | 8
Rango complex inh | 0.5% | 2.7% | -2.3% | -0.7% | -4.9% | 4.5% | ? | 5.9%
miR-21 FLuc | . | 8% | . | . | 10% | -6% | -2% | -4%
GLA inh pH 4.5 | . | -5 | . | . | . | -3 | ? | -5
Rango dissoc inh | 1% | 5% | 2% | 12% | -11% | -7% | ? | 1%

(9) CCCN(CCC)CC(O)CN(c1cc([N+](=O)[O-])ccc1OC)S(=O)(=O)c1ccccc1 (stereo not given)
(10) CC(=O)Nc1ccc(S(=O)(=O)NCCS(=O)(=O)N2CCN(c3ccccc3)CC2)cc1
(11) COc1cc(NC(=O)c2cc(-c3ccccc3)on2)cc(OC)c1OC
(12) O=c1[nH]cc(N(CCO)CCO)c(=O)[nH]1
(13) Cc1ccc2nc(N(CCCN(C)C)C(=O)CN3C(=O)c4ccccc4C3=O)sc2c1
(14) CCN1CCN(Cc2c(O)ccc3c(=O)c(-c4ccc(OC)c(OC)c4)c(C(F)(F)F)oc23)CC1
(15) CC(Cl)C(=O)Nc1ncc(C(F)(F)F)cc1Cl (stereo not given)
(16) CS(=O)(=O)c1cccc(-c2csc(N3CCC(C(N)=O)CC3)n2)c1
assay / compound | 9 | 10 | 11 | 12 | 13 | 14 | 15 | 16
Rango complex inh | 2.5% | -0.2% | -0.4% | -2.1% | 3.6% | -6.3% | 0.1% | -0.4%
miR-21 FLuc | -8% | 11% | 14% | 1% | 1% | -8% | 6% | .
GLA inh pH 4.5 | 0 | . | . | 1 | 8 | -11 | 5 | .
Rango dissoc inh | 0% | 0% | -10% | -9% | -5% | -3% | 15% | -14%

(17) COc1cccc(NC(=O)CSc2nnc(-c3cccs3)n2C)c1
(18) O=C(COc1cc2oc(=O)c3c(c2cc1Cl)CCC3)Nc1ccc(CN2CCOCC2)cc1
(19) COc1cc(NC(=O)C/C(C)=N/NC(=O)C(=O)NC2CCCCC2)c(OC)cc1Cl
(20) Cc1ccc(CC(=O)Nc2ccc(S(=O)(=O)N3CCOCC3)cc2)cc1
(21) Oc1c(C(c2cccs2)N2CCOCC2)sc2ncnn12 (stereo not given)
(22) COc1ccc(NC(=O)C(CC(C)C)NC(=O)C2CCC(C)CC2)cc1 (stereo not given)
(23) CCN1CCN(C(=O)CN(Cc2ccccc2)S(C)(=O)=O)CC1
(24) CCC(C(=O)O)N1C(=O)C2CCCCC2C1=O (stereo not given)
assay / compound | 17 | 18 | 19 | 20 | 21 | 22 | 23 | 24
Rango complex inh | 2.0% | 3.1% | -0.1% | 0.1% | 2.3% | -1.4% | -1.4% | -1.1%
miR-21 FLuc | -5% | 3% | -4% | 0% | -1% | -15% | -2% | 0%
GLA inh pH 4.5 | 2 | . | -3 | . | 0 | . | -6 | 1
Rango dissoc inh | 7% | 26% | -23% | -1% | -1% | -6% | -1% | -11%

# Record cards, as listed above:
# `CCCN(CCC)CC(O)CN(c1cc([N+](=O)[O-])ccc1OC)S(=O)(=O)c1ccccc1` (stereo not given) as listed: Rango complex inh: 2.5%; miR-21 FLuc: -8%; GLA inh pH 4.5: 0; Rango dissoc inh: 0%
# `CCCc1cc(=O)oc2c(C)c(O)c(CN3CCCCC3)cc12` as listed: Rango complex inh: ?; miR-21 FLuc: -2%; GLA inh pH 4.5: ?; Rango dissoc inh: ?

# The listing continues.
(25) O=C(c1ccc(Cl)s1)N1CCN(S(=O)(=O)c2ccc(Cl)cc2)CC1
(26) O=[N+]([O-])/C=C/c1cc2ccccc2[nH]1
(27) COc1ccc(/C=C/c2nc3ccccc3n2C)cc1
(28) COc1ccc(-c2nc(SCC(=O)NC3CCCC3)c(-c3ccc(OC)cc3)[nH]2)cc1
(29) CCOC(=O)CC(NC(=O)c1cccs1)c1ccc(C)cc1 (stereo not given)
(30) COc1ccccc1NS(=O)(=O)c1cccc(C(=O)NNC(=O)c2ccc(Cl)nc2)c1
(31) O=C(Nc1nc2ccc(F)cc2s1)C1=NN(c2ccccc2)C(=O)CC1
(32) CCN1C[C@@H]2[C@@H]3C(=O)N(Cc4ccccc4)C(=O)[C@@H]3[C@](Cc3ccccc3)(C1=O)N2C(=O)c1ccccc1
assay / compound | 25 | 26 | 27 | 28 | 29 | 30 | 31 | 32
Rango complex inh | 0.6% | 6.2% | 0.2% | -2.6% | 2.4% | -2.2% | -3.6% | 0.6%
miR-21 FLuc | . | 25% | ? | 14%&8% | -1% | . | -31% | .
GLA inh pH 4.5 | . | -9 | 0 | -3 | . | . | -2 | .
Rango dissoc inh | 1% | -1% | 16% | -9% | 1% | 1% | -11% | -3%

(33) Cn1c(SCC(=O)c2ccc(F)cc2)nc2cccnc21
(34) CCCC(C)C(=O)Nc1ccc(Cl)cc1Cl (stereo not given)
(35) COCCN(CC(=O)Nc1cccc(C)c1C)C(=O)Cn1c(=O)cnc2ccccc21
(36) C=CCOc1ccc(/C=C/C(=O)OC(C)C(=O)Nc2ccc(NC(C)=O)cc2)cc1 (stereo not given)
(37) c1ccc(-c2cncn2-c2ccccc2)cc1
(38) Cc1cc(C)cc(N2CC(C(=O)OCC(=O)Nc3cc(C)on3)CC2=O)c1 (stereo not given)
(39) CCOC(=O)C1=C(C)NC(=O)CC1c1cc2c(cc1Br)OCO2 (stereo not given)
(40) Cc1ccc2cc(C(c3nnnn3C3CCCC3)N(Cc3cccnc3)Cc3ccco3)c(=O)[nH]c2c1 (stereo not given)
assay / compound | 33 | 34 | 35 | 36 | 37 | 38 | 39 | 40
Rango complex inh | 9.2% | -1.6% | 1.8% | -2.8% | -2.5% | 0.4% | -0.7% | 0.0%
miR-21 FLuc | -17% | -1% | . | . | . | 0% | 1% | -1%
GLA inh pH 4.5 | -1 | 1 | . | . | . | . | -8 | -5
Rango dissoc inh | -14% | 1% | -8% | -7% | -14% | -2% | 5% | ?

(41) O=C(CSc1ncccn1)c1ccccc1Br
(42) O=C(NCc1ccccc1)C(=O)NCC1CCCN1S(=O)(=O)c1cccs1 (stereo not given)
(43) COc1ccc(C)cc1NC(=O)NNC(=O)C(C)Oc1ccc([N+](=O)[O-])cc1 (stereo not given)
(44) COc1ccc(Cl)cc1C(=O)Nc1ccc(S(=O)(=O)N2CCCC2)cc1
(45) O=C1CSC(c2cccnc2)N1Cc1ccc(Cl)cc1Cl (stereo not given)
(46) CCOC(=O)c1c(C)c(C)n(Cc2cccc(OC)c2OC)c1C
(47) Clc1cccc(-c2cc3nc4c(c(NCc5ccco5)n3n2)CCCC4)c1
(48) COC(=O)C1CSC(C(=O)OC)N1C(=O)CN1CCN(c2ccc(OC)cc2)CC1 (stereo not given)
assay / compound | 41 | 42 | 43 | 44 | 45 | 46 | 47 | 48
Rango complex inh | -1.1% | 0.0% | 0.3% | -1.1% | -0.6% | -3.8% | -5.3% | -1.7%
miR-21 FLuc | -43% | . | 3% | 0% | 3% | 0% | -66% | 0%
GLA inh pH 4.5 | 6 | . | . | -5 | 0 | 2 | 0 | 9
Rango dissoc inh | 3% | -7% | 0% | -5% | -6% | -8% | -18% | -1%

(49) CCn1c(/C=N/n2cnnc2)nc2ccccc21
(50) C[C@@]12C(=O)N(CC3CC3)CC(=O)N1[C@H](/C=C/c1ccccc1)[C@@H]1C(=O)N(c3ccccc3)C(=O)[C@@H]12
(51) CCOC(=O)c1ccc(NC(=O)CCc2ccc(C)o2)cc1
(52) Cc1sc2ncn(CC(=O)NCC3COc4ccccc4O3)c(=O)c2c1S(=O)(=O)N1CCOCC1 (stereo not given)
(53) O=C(CNC(=O)c1cn2ccccc2n1)Nc1ccc(F)c(F)c1
(54) O=S(=O)(Nc1ccc2cn[nH]c2c1)c1cc(Br)ccc1Br
(55) O=c1cc(-c2ccccc2)nc2cc(-c3ccco3)[nH]n12
(56) O=C(CCN1CCc2ccccc2C1)Nc1ccccc1
assay / compound | 49 | 50 | 51 | 52 | 53 | 54 | 55 | 56
Rango complex inh | -1.2% | 3.0% | -4.8% | -0.6% | -1.8% | 4.0% | 1.6% | 2.1%
miR-21 FLuc | 0% | 7% | -6% | -2% | . | . | -10% | -22%
GLA inh pH 4.5 | 1 | . | -14 | 4 | . | . | -7 | 2
Rango dissoc inh | 36% | -22% | -12% | 1% | 13% | -5% | -4% | -1%

# Ordered by value in Rango dissoc inh (low to high): six of the compounds above
(54) O=S(=O)(Nc1ccc2cn[nH]c2c1)c1cc(Br)ccc1Br
(55) O=c1cc(-c2ccccc2)nc2cc(-c3ccco3)[nH]n12
(56) O=C(CCN1CCc2ccccc2C1)Nc1ccccc1
(52) Cc1sc2ncn(CC(=O)NCC3COc4ccccc4O3)c(=O)c2c1S(=O)(=O)N1CCOCC1 (stereo not given)
(53) O=C(CNC(=O)c1cn2ccccc2n1)Nc1ccc(F)c(F)c1
(49) CCn1c(/C=N/n2cnnc2)nc2ccccc21
assay / compound | 54 | 55 | 56 | 52 | 53 | 49
Rango complex inh | 4.0% | 1.6% | 2.1% | -0.6% | -1.8% | -1.2%
miR-21 FLuc | . | -10% | -22% | -2% | . | 0%
GLA inh pH 4.5 | . | -7 | 2 | 4 | . | 1
Rango dissoc inh | -5% | -4% | -1% | 1% | 13% | 36%

# New compounds follow
(57) COC(=O)C(Cc1ccccc1)NC(=O)CCC(=O)NC(C)CCc1ccccc1 (stereo not given)
(58) COc1ccc(-n2ncc3c(N4CCN(c5cc(C)ccc5C)CC4)ncnc32)cc1
(59) CC(OC(=O)c1ccccc1C(=O)N(C)C1CCCCC1)C(=O)NC1(C#N)CCCCC1 (stereo not given)
(60) Nn1c(Cc2ccccc2)nnc1Cc1ccccc1
(61) Cc1cccc2sc(N(CCN(C)C)C(=O)/C=C/c3cccs3)nc12
(62) COc1ccccc1NC(=S)NNC(=S)Nc1ccc(OC(F)F)cc1
(63) Cc1cc(C)c(CN2CCN(C(=O)Cn3ccc(N)nc3=O)CC2)c(C)c1
(64) CC(C)CC(=O)N1CCN(C(=O)c2ccc(-c3ccccc3)cc2)CC1
assay / compound | 57 | 58 | 59 | 60 | 61 | 62 | 63 | 64
Rango complex inh | 1.9% | -2.1% | 0.3% | -0.1% | ? | -0.3% | 1.7% | 0.3%
miR-21 FLuc | 1% | -1% | . | . | -2% | -39% | . | -1%
GLA inh pH 4.5 | . | 1 | . | . | -10 | 3 | . | .
Rango dissoc inh | 13% | 5% | -1% | -5% | 6% | 6% | 4% | 13%

(65) COc1ccccc1NS(=O)(=O)c1cc(NC(=O)CCC2CCCC2)ccc1N1CCOCC1
(66) COc1ccc(S(=O)(=O)N2CCCN(CC(=O)Nc3ccc(OC)c(Cl)c3)CC2)cc1
(67) COc1cc(C)nc(N2CCCC(C(=O)Nc3ccccc3Br)C2)n1 (stereo not given)
(68) Cc1ccc(S(=O)(=O)c2nc(-c3ccccc3Cl)oc2N(C)C)cc1
(69) Cc1ccc(Cl)cc1NC(=O)c1cc(NC(=O)CCCC(=O)O)ccc1N1CCCCC1
(70) COC(=O)c1ccc(Cn2cc(Cl)cn2)cc1
(71) O=C(Nc1ccc(F)c([N+](=O)[O-])c1)c1ccc2c(c1)OCCO2
assay / compound | 65 | 66 | 67 | 68 | 69 | 70 | 71
Rango complex inh | -0.5% | 4.3% | -2.7% | 0.5% | 0.1% | -6.2% | 0.1%
miR-21 FLuc | -1% | -2% | -1% | -56% | -9% | -6% | -10%
GLA inh pH 4.5 | -2 | -3 | 6 | . | . | 8 | 5
Rango dissoc inh | -6% | 7% | -8% | -6% | -3% | 0% | 13%
